AID504770: growth inhibitors of E. coli YBA685 in a screen for V. cholerae RctB (chromosome II replication) inhibitors. z-score (no concentration beside the values). AID 504770. E. coli YBA685 rctB-dependent plasmid, OD600 growth, 3 h; active compounds read low. hit rate 0.27% among 130,000;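 active = z-score under -2 on both plates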;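 note: wells of about 30 µL received 100 nL stock; score is relative to mean and SD of the test wells; the first replicate is given; strong numbers were not always called active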
CapD inh: blocks the Bacillus anthracis CapD enzyme. purified CapD enzyme, fluorescence intensity read-out; active compounds read low; some hits fall short of the stated cut. z-score (no concentration beside the values). hit rate 0.23% among 140,000;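 active = z-score under -4 in either of two replicates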;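 note: stock transfer was 100 nL into about 40 µL; score is relative to mean and spread of the plate; one replicate is shown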
Numbers without * were called inactive; i = inactive; · = not tested or not shown; & = joins results of further samples. The list is partial; the hit share may differ from the screen's.

Values run as follows: CapD inh | AID504770
Cc1ccccc1Cn1c(CCNC(=O)C(C)(C)C)nc2ccccc21
    -0.49 | 0.5
CCOC(=O)c1cccc(NC(=O)c2c(C)nn(-c3ccccc3)c2-n2cccc2)c1
    -0.24 | -0.8
CCOc1ccc(-n2ccnc(SCC(N)=O)c2=O)cc1
    · | 0
Clc1ccccc1C(c1ccccc1)(c1ccccc1)n1ccnc1
    4.7&-0.18 | 0.6
Cc1c(C#N)c(-c2ccccc2)nc2ccccc12
    -0.24 | -0.35
CC(=O)Oc1ccc2c(c1)OC(c1ccccc1)CC21CC(C)(C)NC(=S)N1 (centres undefined)
    -0.16 | ·
Cc1ccc(N2C(=O)C3C(c4cccc(Br)c4)OC4(C(=O)c5ccccc5C4=O)C3C2=O)cc1Cl (centres undefined)
    0.46 | ·
CC1(C)CC2(CCO1)OC(=O)CC2C(=O)O (centres undefined)
    0.47 | ·
Cc1n[nH]c(=O)n1Cn1c(C)n[nH]c1=O
    · | 0.2
CN(Cc1ccccc1)C(=O)Nc1ccccc1
    0.47 | 0.2
CCn1c(CSc2nc(C)cc(=O)[nH]2)nc2ccccc21
    2.6 | -0.05
N#CCCn1c(SCc2cc3ccccc3nc2Cl)nc2ccccc21
    · | -0.05
N#Cc1ccc(-c2ccc(F)cc2)nc1OC(=O)c1c(Cl)cccc1Cl
    0.59 | ·
CC1CCC2(CC1)NC(=S)N(c1ccccc1)N2 (centres undefined)
    71 | 1.1
CCOc1ccc(NC2CCN(C(C)=O)CC2)cc1
    0.32 | 1.5
Nc1c(C(=O)N2CCc3ccccc32)sc2nc(C(F)(F)F)c3c(c12)CCCC3
    2.1 | -0.05
N#CC1=C(N)Oc2c(C=Nc3ccccc3)ccc(O)c2C1c1cccc([N+](=O)[O-])c1 (centres undefined)
    -0.54 | ·
CC1Cc2ccccc2N1C(=O)CCS(=O)(=O)c1cccc2nonc12 (centres undefined)
    -1.2 | 0.4
Cc1ccccc1OC(C)C(=O)NC1CCCC1 (centres undefined)
    0.76 | -0.9
COc1ccc(-c2nc3ccc(C)cc3[nH]2)cc1OC
    86 | 0.1
CCOC(=O)c1ccc(N2CCOCC2)c(NC(=O)c2ccc(Cl)c(Cl)c2)c1
    1.6 | ·
O=[N+]([O-])c1ccccc1N=c1oc2ccc3ccccc3c2cc1-c1nc2ccccc2s1
    -0.2 | ·
Cc1cccc(CCNC(=O)Cc2noc3ccccc23)c1
    -1.2 | -0.25
Cc1[nH]c(=O)[nH]c(=O)c1CC(=O)O
    0.3 | -0.7
Nn1c(C(O)c2ccccc2)n[nH]c1=S (centres undefined)
    0.16 | 0.1
N#CC1=C(N)Oc2n[nH]c(-c3ccc([N+](=O)[O-])cc3)c2C12C(=O)Nc1ccccc12 (centres undefined)
    0.05 | ·
CC(=O)C1=C(O)C(=O)N(c2ccccc2)C1c1ccc2c(c1)OCO2 (centres undefined)
    -0.31 | ·
CCN(CC(=O)Nc1ccc2c(c1)OCCO2)C(=O)c1c(-c2ccccc2)noc1C
    · | -0.4
Cc1ccccc1CSc1nc2c(sc(=S)n2-c2ccccc2C)c2nc3ccccc3n12
    -0.43 | ·
COc1ccc(C(=O)COC(=O)C(Cc2ccccc2)N2C(=O)C3C4C=CC(C4)C3C2=O)cc1 (centres undefined)
    -0.77 | ·
O=C(CSc1ccc2ccccc2c1)N1CCN(C(=O)c2ccco2)CC1
    0.62 | -0.8
O=C(NC(=O)c1ccc(-c2ccc(Cl)cc2)s1)c1ccccc1
    49 | -0.35
CC(C)CC(Nc1ncnc2c1oc1ccccc12)C(=O)O (centres undefined)
    0.035 | -0.8
N#Cc1ccsc1NC(=O)CSc1nnc(NC2CC2)s1
    · | -0.15
CC(C)(C)c1ccc(-c2ncon2)cc1Cn1nnc(-c2cccc(C(F)(F)F)c2)n1
    9.7 | 1.9
CCOc1cc(/C=C2/C(=O)NC(=O)N(c3ccc(Br)c(C)c3)C2=O)ccc1OCC(=O)O
    0.21 | ·
CCC(=O)N(C1=NCCC(=O)S1)c1ccc(C(C)(C)C)cc1
    -0.2 | 1.6
Cc1ccc(S(=O)(=O)CC(C)(O)CS(=O)(=O)c2ccc(C)cc2)cc1
    -0.025 | 0.85
Cc1ccc(NC(=O)CC(C)CC(=O)O)cc1 (centres undefined)
    0.25 | -0.45
CC(C)CNC(=S)NCc1ccco1
    1 | 1.7
O=C(OCc1cc(=O)oc2cc3c(cc12)CCC3)c1ccc(-n2cnnn2)cc1
    · | 0.4
Cc1[nH]c2ccccc2c1C(=O)CN(C)C1CCCCC1
    -0.04 | 0.05
O=C(O)COCC(=O)Nc1ccc(C(F)(F)F)cn1
    -1.2 | -1
COc1ccc(N2C(=O)c3ccccc3NC2c2ccc(O)c(OC)c2)cc1 (centres undefined)
    15 | ·
Cc1ccc(-n2nc(C)c3c(C)cc(=O)[nH]c32)cc1
    4.5 | -0.6
CCOC(=O)c1c(-c2cccs2)csc1NC(=O)CSc1ccccn1
    · | -0.2
O=C(NCCc1ccccc1)c1cnn(-c2ccccc2)c1-n1cccc1
    4.5 | -0.3
FC(F)(F)c1cccc(-c2ccnc3cc(-c4nc(-c5ccc(Cl)cc5)cs4)nn23)c1
    -0.57 | ·
COc1cc(C(=O)NCCSc2ccc(Cl)cc2)cc(OC)c1OC
    -0.17 | ·
Cc1nc(SCC(=O)N2CCCC2c2ccc3c(c2)OCCCO3)c(C#N)c(C)c1C (centres undefined)
    · | 0.25

Continued.
Values run as follows: CapD inh | AID504770
COc1ccc(OCC(O)CNC(=O)c2cc(C(C)(C)C)nn2C)cc1 (centres undefined)
    -0.72 | -0.65
O=C(Cn1ncc2c1-c1ccccc1OC2)Nc1cccnc1
    -0.73 | -0.85
COc1ccc(C(=O)N2CC(=O)Nc3ccccc32)cc1S(=O)(=O)NCc1ccncc1
    · | -0.55
O=C(Nc1ccccc1)c1ccc2c(c1)C(=O)N(CCC1=CCCCC1)C2=O
    0.21 | 0.4
O=C(CN(Cc1ccco1)C(=O)Cc1ccccc1F)Nc1ccccc1C(F)(F)F
    · | 1.2
O=C(/C=C/c1ccccc1)Nc1ccc(N2CCN(c3ccc(C(F)(F)F)cn3)CC2)nc1
    -0.36 | 0.3
Cc1cc(C)n(-c2ncc(S(=O)(=O)C(C)(C)C)c(N)n2)n1
    0.23 | -1.1
O=C(COc1ccccc1)Nc1ccccc1C(=O)O
    -0.035 | ·
CCOC(=O)N1CCN(S(=O)(=O)c2cccc3nsnc23)CC1
    -0.77 | ·
CCC(CC)c1nnc(N)s1
    1.2 | 1.1
O=C(COc1ccc(Cl)cc1)n1nnc2ccccc21
    · | -0.05
COc1cc([N+](=O)[O-])ccc1-c1ccc(/C=C2/C(=O)NC(=O)N(c3ccccc3)C2=O)o1
    -0.25 | ·
N/C(=N\O)C(c1ccccc1)c1ccccn1 (centres undefined)
    0.2 | 0.25
O=C1c2ccccc2C(=O)N1c1ccc2[nH]c(=S)sc2c1
    -0.21 | 0.55
Cn1c(C(O)c2ccc3c(c2)OCO3)nc2ccccc21 (centres undefined)
    -1.1 | -0.45
CN(c1ccccc1)c1nc(N)c2c(N)nc(SCC(=O)O)cc2c1C#N
    · | -0.05
Cc1c(C(=O)N2CCN(c3ccccc3)CC2)sc2ncnc(N3CCN(c4ccccn4)CC3)c12
    -0.79 | ·
CSc1nc2ccccc2c(=O)n1CCc1ccccc1
    0.54 | 0
CC1(C)N=C(c2ccccc2)C(=O)N1
    -0.23 | -0.05
CCC1CCCCN1C(=O)CCN1C(=O)c2ccccc2C1=O (centres undefined)
    -0.1 | ·

Four structures out of the list, sorted by count of non-hydrogen atoms, smallest number first:
Values run as follows: CapD inh | AID504770
N/C(=N\O)C(c1ccccc1)c1ccccn1 (centres undefined)
    0.2 | 0.25
Cn1c(C(O)c2ccc3c(c2)OCO3)nc2ccccc21 (centres undefined)
    -1.1 | -0.45
COc1cc([N+](=O)[O-])ccc1-c1ccc(/C=C2/C(=O)NC(=O)N(c3ccccc3)C2=O)o1
    -0.25 | ·
Cc1c(C(=O)N2CCN(c3ccccc3)CC2)sc2ncnc(N3CCN(c4ccccn4)CC3)c12
    -0.79 | ·

The listing picks up, starting 4 compounds before the break.
Values run as follows: CapD inh | AID504770
Cc1c(C(=O)N2CCN(c3ccccc3)CC2)sc2ncnc(N3CCN(c4ccccn4)CC3)c12
    -0.79 | ·
CSc1nc2ccccc2c(=O)n1CCc1ccccc1
    0.54 | 0
CC1(C)N=C(c2ccccc2)C(=O)N1
    -0.23 | -0.05
CCC1CCCCN1C(=O)CCN1C(=O)c2ccccc2C1=O (centres undefined)
    -0.1 | ·
COC(=O)c1ccccc1N1C(=N)SCC1=O
    · | -0.6
[O-]/[N+](=C\c1ccccc1)C1CCCCC1/[N+]([O-])=C/c1ccccc1 (centres undefined)
    0.32 | 0.1
Cc1sc2ncn(CC(=O)Nc3ccc(Oc4ccccc4)cc3)c(=O)c2c1S(=O)(=O)N1CCCCC1
    -0.25 | -0.1
COc1ccccc1Cn1c(SCC(=O)c2ccccc2)nc2cc(C(=O)N3CCC4(CC3)OCCO4)ccc2c1=O
    -2.1 | ·
Fc1ccc(-c2nc3c(F)c(F)c(F)c(F)c3nc2-c2ccc(F)cc2)cc1
    -0.57 | ·
NC(=O)CSc1ncnc2c1oc1ccccc12
    0.28 | 0
Cn1ccnc1SCC(=O)n1c2c(c3ccccc31)CCCC2
    · | -0.25
CNC1(C#N)CCC(C)CC1 (centres undefined)
    · | -2.3*
Cc1cc(C)c2nc3nc(C)cc(C)c3c(N)c2c1
    1.9 | -0.55
C=CCn1c(SCC(=O)NCc2ccco2)nc2scc(-c3ccccc3)c2c1=O
    -0.46 | ·
Cc1ccccc1OCC(=O)Nc1sc2c(c1C(=O)NCc1ccco1)CCCC2
    0.04 | -0.8
COc1nccnc1NS(=O)(=O)c1ccc(NC(=O)CSc2nc3ccccc3s2)cc1
    -0.79 | ·
O=C(NNC(=O)c1ccccc1O)OC/C=C/COCc1ccccc1
    7.1 | ·
O=C(OCC(F)(F)F)c1ccc(COc2ccc3ccccc3c2)o1
    -0.95 | -0.2
CCOC(=O)c1c(-c2ccccc2)oc2ccc(O)c(CN(C)C)c12
    i | -1.1
CCC(Sc1nc2ncccc2o1)C(=O)NC1CCCCC1 (centres undefined)
    -1.1 | 0.3
COc1ccc(/C(C#N)=C/N2CCOCC2)cc1OC
    -3.5 | -0.5
O=C(CSc1nnc(-c2cccnc2)o1)c1ccccc1
    -0.36 | -1
CC1(C)N=C(SCC(=O)Nc2ccccc2)c2ccccc2N1
    17 | -0.7
COC(=O)c1ccc(Nc2nc(C)c([N+](=O)[O-])c(Nc3ccc(C(=O)OC)cc3)n2)cc1
    0.17 | ·
COC(=O)CCc1c(C)nn(-c2ccc(C(=O)NCCOc3ccccc3)cc2)c1C
    -0.38 | ·
CC1=C(/C=C/C(C)=C/C=C/C(C)=C/CO)C(C)(C)CCC1
    0.25 | 0.25
O=C(Nc1ccc(Cl)c(Cl)c1)N1C[C@H]2C[C@@H](C1)c1cccc(=O)n1C2
    -0.46 | ·
Cc1ccc(OC(=O)c2nn(-c3ccccc3)nc2C)c([N+](=O)[O-])n1
    -0.32 | ·
COc1ccc(OC)c(-n2c(=S)[nH]c3cc(C(=O)NCc4ccc5c(c4)OCO5)ccc3c2=O)c1
    -0.63 | ·
NC(=O)c1cnn2c(C(F)(F)F)cc(-c3ccccc3)nc12
    1.1 | 0.2
COc1ccc(S(=O)(=O)N(Cc2ccc(OC)c(Br)c2)Cc2ccco2)cc1
    -0.81 | ·
Clc1ccc(-c2noc3ncnc(N4CCCC4)c23)cc1
    -0.01 | -0.05
CSc1nsc(SC)c1NC(=O)N1CCCC1
    -0.34 | -1.7
COc1ccc(N2C(=O)C3C4c5ccccc5C(C=Nc5ccc(C)cc5C)(c5ccccc54)C3C2=O)cc1 (centres undefined)
    -0.45 | ·
CCCNC(=O)c1cnn(-c2cccc(C)c2)c1-n1cccc1
    -0.38 | -0.4
O=C(O)Cn1ncn2c(cc3ccccc32)c1=O
    2.7 | 0.6
CCOc1cc(C)c(Cl)cc1S(=O)(=O)Nc1ccccn1
    1.8 | 1.4
CSc1nccn1-c1cc(OCc2ccccc2)c(Cl)cc1Cl
    -0.53 | ·
CN(C(=O)c1cccc(S(=O)(=O)NCc2ccccc2)c1)C1CCCCC1
    -0.21 | -0.1
CCOc1cc(-c2ccc(O)c(O)c2)cc(=O)c2c(C)oc(C)c12
    -0.15 | -0.35
O=c1cc(N2CCN(c3ccccc3)CC2)[nH]c(=O)n1-c1ccccc1
    -1.3 | 2.5
CCc1ccc2[nH]c(=O)c(Cc3ccccc3)c(O)c2c1
    23 | 2
Cc1onc(-c2ccccc2Cl)c1C(=O)N=C1N=C2C=CC=CN2Cc2ccccc21
    · | 0.25
Cc1noc(C)c1COC(=O)CNS(=O)(=O)c1c(Cl)cccc1Cl
    · | -0.95
[O-][n+]1ccccc1Oc1ncnc2sc3c(c12)CCCC3
    · | -0.85
CC(=O)n1c(-c2ccc(C)cc2)cc(-c2ccc(C)cc2)c(C#N)c1=O
    60 | 1.9
COc1ccc(CCN2C(=O)C3C(C(=O)Nc4cc(C)on4)C4(C)C=CC3(O4)C2C(=O)NC2CCCCC2)cc1 (centres undefined)
    · | -0.4
CCc1ccc(N(C)S(=O)(=O)c2ccc3[nH]cc(C(=O)N4CCc5ccccc5C4)c(=O)c3c2)cc1
    0.84 | ·
O=c1[nH]c2ccc(OC(F)(F)F)cc2c(O)c1-c1ccccc1
    0.73 | ·
CC(=O)Nc1ccc(S(=O)(=O)C(C#N)c2nc3ccccc3nc2NCCCO)cc1 (centres undefined)
    · | 0.5
CCOC(=O)Cn1c(=O)oc2cc(S(=O)(=O)NC3CCCCC3)ccc21
    0.43 | -0.35

Assay outcomes deposited in PubChem by ICCB-Longwood Screening Facility, Harvard Medical School.
